H5N1 CPE: MDCK cell protection from H5N1 avian flu; actives 0.07% (n = 96,000); cytopathic effect, luminescence, 72 h; active compounds read high; no value below 0 was filed and about half of the inactive calls have no number; reference of the scale not given here; inhibition, % at 50 µM; in the data active means inhibition above about 25%
* = called active by the depositor; i = inactive. An excerpt; rates above refer to the full screens.

SMILES | H5N1 CPE
Cc1cc2cc(C(c3nnnn3Cc3ccco3)N3CCCCC3)c(=O)[nH]c2cc1C (stereo unspecified) | i
CCCCCCc1nc2ccccc2c(=O)n1NC(=O)c1c(O)c2cccc3c2n(c1=O)CCC3 | i
O=C(CN1CC(c2ccccc2)CC1=O)Nc1ccc(F)cc1 (stereo unspecified) | i
COc1cc(C2C(C(C)=O)=C(O)C(=O)N2CCN2CCOCC2)ccc1O (stereo unspecified) | i
COc1ccccc1C(=O)NCc1ccncc1 | 0.1
CC(=O)COc1ccccc1OC(=O)c1ccco1 | 1.9
O=C(NC1CCCC1)C(c1cccs1)N(C(=O)c1ccco1)c1ccc2c(c1)OCCO2 (stereo unspecified) | i
COc1ccc(C2CC(=O)c3cnc(NC(=O)c4ccccc4)nc3C2)cc1OC (stereo unspecified) | 0.1
COC(=O)C1=C(NC(=O)c2cccs2)CCS1 | i
Cc1c(NC(=O)C2CCN(S(=O)(=O)c3ccccc3)CC2)c(=O)n(-c2ccccc2)n1C | 0.1
CN(C)c1ccc(CNC(=O)CN(C)S(=O)(=O)c2cccc3cccnc23)cc1 | 3.8
O=C(NCC(c1cccnc1)N1CCOCC1)Nc1ccccc1 (stereo unspecified) | i
CC1CN(Cc2nc3c(c(=O)[nH]c(=O)n3C)n2CCN2CCOCC2)CC(C)O1 (stereo unspecified) | 1.7
CCCOc1ccc(C(=O)NCc2ccco2)cc1 | 1.2
Cc1nc(S/C(=C\c2ccc(OCc3ccccc3Cl)cc2)C(=O)O)n[nH]1 | i
c1ccc(-c2nnc3ccc(N4CCCC4)nn23)cc1 | 5.3
Cc1ccccc1-n1c(SC(C)C(=O)N2CCN(C)CC2)nc2ccccc2c1=O (stereo unspecified) | 1.5
COCCOC(=O)C1=C(C)NC(=O)N(C(C)=O)C1c1ccc(Cl)cc1 (stereo unspecified) | 0.1
CN(c1ccccc1C(=O)N1CCN(c2cccc(Cl)c2)CC1)S(C)(=O)=O | 0.1
O=C(Nc1nccs1)C1CCN(S(=O)(=O)c2ccc(Cl)c(C(F)(F)F)c2)CC1 | i
CCCC(=O)Nc1ccc(C(=O)O)cc1NC(=O)CCC | 0.5
O=C(CSc1nc2ccccc2c(=O)n1CC1CCCCC1)N1CCOCC1 | i
CCN1CCN(c2ccc(NC(=O)c3ccc4c(c3)OCO4)cc2)CC1 | i
CCNC(=O)CSc1nnc(-c2ccc(OC)cc2)n1CC(C)C | 0.8
COc1cccc(NC(=O)CNC(=O)c2ccc(F)cc2)c1 | i

Given tab-delimited: part of the list above
Compound	H5N1 CPE
COc1cc(C2C(C(C)=O)=C(O)C(=O)N2CCN2CCOCC2)ccc1O (stereo unspecified)	i
COc1ccccc1C(=O)NCc1ccncc1	0.1
CC(=O)COc1ccccc1OC(=O)c1ccco1	1.9
O=C(NC1CCCC1)C(c1cccs1)N(C(=O)c1ccco1)c1ccc2c(c1)OCCO2 (stereo unspecified)	i
COc1ccc(C2CC(=O)c3cnc(NC(=O)c4ccccc4)nc3C2)cc1OC (stereo unspecified)	0.1
COC(=O)C1=C(NC(=O)c2cccs2)CCS1	i
Cc1c(NC(=O)C2CCN(S(=O)(=O)c3ccccc3)CC2)c(=O)n(-c2ccccc2)n1C	0.1
CN(C)c1ccc(CNC(=O)CN(C)S(=O)(=O)c2cccc3cccnc23)cc1	3.8
O=C(NCC(c1cccnc1)N1CCOCC1)Nc1ccccc1 (stereo unspecified)	i
CC1CN(Cc2nc3c(c(=O)[nH]c(=O)n3C)n2CCN2CCOCC2)CC(C)O1 (stereo unspecified)	1.7
CCCOc1ccc(C(=O)NCc2ccco2)cc1	1.2
Cc1nc(S/C(=C\c2ccc(OCc3ccccc3Cl)cc2)C(=O)O)n[nH]1	i
c1ccc(-c2nnc3ccc(N4CCCC4)nn23)cc1	5.3
Cc1ccccc1-n1c(SC(C)C(=O)N2CCN(C)CC2)nc2ccccc2c1=O (stereo unspecified)	1.5
COCCOC(=O)C1=C(C)NC(=O)N(C(C)=O)C1c1ccc(Cl)cc1 (stereo unspecified)	0.1
CN(c1ccccc1C(=O)N1CCN(c2cccc(Cl)c2)CC1)S(C)(=O)=O	0.1
O=C(Nc1nccs1)C1CCN(S(=O)(=O)c2ccc(Cl)c(C(F)(F)F)c2)CC1	i
CCCC(=O)Nc1ccc(C(=O)O)cc1NC(=O)CCC	0.5
O=C(CSc1nc2ccccc2c(=O)n1CC1CCCCC1)N1CCOCC1	i
CCN1CCN(c2ccc(NC(=O)c3ccc4c(c3)OCO4)cc2)CC1	i
CCNC(=O)CSc1nnc(-c2ccc(OC)cc2)n1CC(C)C	0.8
COc1cccc(NC(=O)CNC(=O)c2ccc(F)cc2)c1	i

Remaining list, next part.
SMILES | H5N1 CPE
O=C(Cn1cc2c(n1)CCCC2)NCc1cccc(Cl)c1 | 0.5
Cc1cc(C)c(C(=O)CN2CCOCC2)c(C)c1 | 0.8
COc1ccc2c(c1)CCc1c(C(=O)NCc3ccc(F)cc3)noc1-2 | i
CCN(c1ccccc1)S(=O)(=O)c1ccc(N)c(OC)c1 | i
Cc1cccc(-n2c(=O)cc(N3CCN(c4ccc(F)cc4)CC3)[nH]c2=O)c1 | i
COCCCn1c(SCC(=O)NC(C)C)nnc1-c1ccccc1 | i
Cc1ccc(-n2cnnn2)c2cccnc12 | i
CC(=O)N=C1SC2CS(=O)(=O)CC2N1c1cccc(Cl)c1Cl (stereo unspecified) | i
Cn1cc(CC(=O)Nc2cccc(C#N)c2)c2ccccc21 | i
CSc1ccccc1NC(=O)c1c(Br)cnn1C | 0.5
C[N+]1(C)CCC(=C2c3ccccc3CC(=O)c3sccc32)CC1 | i
CCCCN(C)C(=O)CS(=O)(=O)Cc1nc(-c2cccc(OC)c2)oc1C | 1.1
Cc1nn(-c2ccccc2)c(-c2ccccc2)c1C(=O)O | i
Cc1cc(C)cc(OCC(=O)Nc2nonc2NC(=O)COc2cc(C)cc(C)c2)c1 | i
CC1CCCCN1C(=O)CSCC(=O)Nc1nc(-c2cccs2)cs1 (stereo unspecified) | i
CC1CCCN(Cc2nc3c(c(=O)n(C)c(=O)n3C)n2Cc2c(F)cccc2Cl)C1 (stereo unspecified) | i
O=C(CSCC(=O)OCC(=O)c1ccc(Br)cc1)Nc1cccc2ccccc12 | i
C=CCn1c(SCC(=O)C(C)(C)C)nnc1-c1ccccn1 | i
CCCC(=O)N1CCN(c2ccc(NC(=S)NC(=O)CC)cc2)CC1 | i
CCOC(=O)CSc1nnc(-c2cccs2)n1-c1ccccc1 | 1.1
CN(C(=O)c1ccccc1)C1(C)CCS(=O)(=O)C1 (stereo unspecified) | 0.3
COc1ccc(OC)c(/C=N/NC(=O)CCCC(=O)Nc2cccc(Br)c2)c1 | 2.8
Cc1cccc(CSC2=NCCN2C(=O)c2ccc(Br)o2)c1 | 3.4
COCCNC(=O)c1noc2c1CCc1cc(OC)ccc1-2 | i
CC(C)(C)NC(=O)CN(C(=O)CCN1CCCc2ccccc21)C(C)(C)C | 2.2
SMILES | H5N1 CPE
CCc1nc2oc3ccccc3c(=O)c2c(=O)n1Cc1ccccc1 | 1.0
CCOCC(=O)Nc1nnc(SCCOC)s1 | i
CC1CCCCC1NC(=O)CC1Oc2ccccc2NC1=O (stereo unspecified) | i
CCc1ccc2oc(-c3cc(N)ccc3Cl)nc2c1 | i
O=C1CC(N2CCCCCC2)C(=O)N1c1ccc2c(c1)OCO2 (stereo unspecified) | 0.5
Cc1ccc(C)c(NC(=O)c2ccc[n+](Cc3ccc([N+](=O)[O-])cc3)c2)c1 | i
CCOc1ccc(Br)c(C2(O)CC(C)N(C)CC2C)c1 (stereo unspecified) | i
CC(c1ccccc1)C1NC(C(=O)O)CS1 (stereo unspecified) | 1.2
Cc1cccc(C(=O)NCCCN2CCCC2=O)c1 | i
Clc1ccc(SCc2cc(-c3ccccc3)on2)cc1 | 0.5
Cc1ccccc1NC(=O)OCc1cccnc1Sc1ccc(Cl)cc1 | 1.0
CCOc1ccc(NC2=NCC(=O)N2Cc2cccs2)cc1 | i
CCC(C)[C@H](NC(=O)OC(C)(C)C)c1nnc(SCc2c(C)[nH]c(=O)[nH]c2=O)o1 (stereo partly specified) | i
Cc1noc(C)c1CSCC(=O)OCc1nc2ccccc2c(=O)n1CC#N | 0.4
COC(=O)C(C)Sc1nc2c(c(=O)[nH]c(=O)n2C)n1CCC(C)C (stereo unspecified) | 0.3
CC(C)n1c(C(O)c2ccc3c(c2)OCO3)nc2ccccc21 (stereo unspecified) | i
O=C(Nc1ccc2c(c1)OCO2)c1noc2c1CCCCC2 | i
O=C(Nc1ccccc1)N1CCCC(c2nc(-c3cccs3)no2)C1 (stereo unspecified) | 5.3
Cc1ccc(C(=O)N/N=C/c2ccc(S(=O)(=O)O)o2)c(Cl)c1 | i
CCOC(=O)C(C)n1cnc2sc3c(c2c1=O)CCC3 (stereo unspecified) | 0.5
O=C(c1cccc(N2CCCC2=O)c1)N1CCOCC1 | 0.3
Cc1ccc(NC(=O)c2ccc(OC(=O)c3cc4ccccc4o3)cc2)cc1 | 2.5
CC(C)CC(=O)NCCc1ccncc1 | i
O=c1[nH]c2cc3c(cc2cc1C(c1nnnn1C1CCCCC1)N1CCSCC1)OCCO3 (stereo unspecified) | 0.6
CCC(C)NC(=O)C1(C)CCC(=O)N1Cc1ccccc1OC (stereo unspecified) | 0.8
SMILES | H5N1 CPE
COc1cc(/C=N/NC(N)=O)c(Br)cc1OCC(=O)Nc1ccccc1C | i
COc1ccc(CNc2cc(C)ccc2C)c(OC)c1OC | 1.5
CCNc1nc(SCCOc2ccccc2)nc(N(C)C)n1 | i
CC(=O)N(CCC(c1ccccc1)c1ccco1)Cc1cccs1 (stereo unspecified) | 0.0
COCCNCc1ccccc1 | i
COc1ccc(S(=O)(=O)NCc2ccc3c(c2)cc(C)n3C)cc1 | 0.7
CC1(C)CC(=O)N(CC(=O)O)c2ccccc2S1 | i
O=C(c1ccco1)N1CCN(c2nc(C(F)(F)F)nc3c2nnn3Cc2ccccc2)CC1 | 5.9
CC1(C)Cc2c(oc3ncn4ncnc4c23)CO1 | 1.6
C=CCOC(=O)C1=C(C)NC2(O)c3ccccc3C(=O)C12O (stereo unspecified) | i
COc1ccc(OC)c(C(=O)Cn2nnc3ccccc3c2=O)c1 | i
CCN(CC)S(=O)(=O)c1cccc(C(=O)Nc2sc3c(c2C(N)=O)CCCC3)c1 | i
O=c1[nH]c(=S)[nH]nc1Cc1ccccc1 | 0.7
CC(C)Oc1ccc(C(=O)N2CCCc3ccccc32)cc1 | i
O=C(O)CCCC(=O)N(Cc1ccccc1)Cc1ccccc1 | 0.2
C/C(=N\NC(=O)c1cccc(Br)c1)c1cccc(NC(=O)c2ccc(C)o2)c1 | 0.1
CCOCCc1nnc(NC(=O)Cc2ccc(Br)cc2)s1 | i
Cc1cccc(CSC2=CS(=O)(=O)c3ccccc3N2)c1 | i
NC(=O)c1ccccc1NC(=O)c1ccccc1F | i
COc1cc(-c2nc(-c3ccccc3)c(-c3cccs3)[nH]2)cc(OC)c1OC | 0.6
O=C(c1ccc(Cl)c(S(=O)(=O)N2CCCC2)c1)N1CCN(c2ccccn2)CC1 | 0.5
COc1ccc(NC(=O)c2ccc(OC(=S)N(C)c3ccc(OC)cc3)cc2)cc1 | i
COc1ccc(NC(=O)CCCCCN2C(=O)CCC2=O)cc1Cl | 1.7
CC(C)Cn1cc(C(=O)N2CCN(c3ccccn3)CC2)c2c3ccccc3n(C)c2c1=O | 1.8
O=C(Nc1ccc(F)c(F)c1)c1cccnc1 | i
SMILES | H5N1 CPE
CCCCN(C)S(=O)(=O)c1ccc(C(=O)Nc2nnc(CSC)o2)cc1 | 1.0
COc1cc(C(=O)N(C)c2nnc(-c3cccnc3)s2)cc(OC)c1OC | 0.2
O=c1cccc2n1CC1CC2CN(C(c2cccc(F)c2)c2sc3ncnn3c2O)C1 (stereo unspecified) | 1.6
COc1cnc(-c2ccccc2)nc1Oc1cccc(C)c1 | i
CCc1c(C(=O)NC2CCCCC2)[nH]c(C)c1C(C)=O | i
CN(C)/C=N/c1c(C(=O)NCc2ccccc2)nnn1Cc1ccccc1 | i
Cc1cc(C(=O)Nc2sc(C)c(-c3ccc(F)cc3)c2C(N)=O)no1 | i
O=C(Nc1ccc2oc(Cc3ccc(Cl)cc3)nc2c1)c1cccnc1 | i
Cc1c(NC(=O)C2CCCN2S(=O)(=O)c2ccc(Cl)cc2)c(=O)n(-c2ccccc2)n1C (stereo unspecified) | i
COC(=O)c1cccc(COC(=O)CNC(=O)c2ccco2)c1 | i
Cc1ccc2c(c1)-c1c(cnn1CC(=O)Nc1ccccc1N1CCN(C)CC1)CO2 | i
COc1ccc(O)c(/C=N/NC(=O)c2ccc(OCc3cccc(Br)c3)cc2)c1 | i
COc1ccc2[nH]c(C)c(CCN3C(=O)C4C5C=CC(C5)C4C3=O)c2c1 (stereo unspecified) | 0.1
O=C(CCCn1c(SCC(=O)c2ccc(F)cc2)nc2ccccc2c1=O)NCc1ccccc1 | i
COc1cccc(C(=O)CSc2nnnn2C)c1 | i
Cc1noc(C)c1CN1C(=O)NC(Cc2ccccc2)(Cc2ccccc2)C1=O | 1.1
COc1cc2c(cc1NC(=O)CSc1nnc(Cc3cccs3)n1C)oc1ccccc12 | i
COc1cccc(-c2nn(C)c3sc(C(=O)Nc4ccc5c(c4)OCCO5)cc23)c1 | i
CCOc1ccc(CN(Cc2ccco2)S(=O)(=O)c2ccc(-n3cnnn3)c(OC)c2)cc1 | 4.3
O=C(/C=C/c1ccco1)NC(=S)Nc1ccccc1N1CCOCC1 | i
CCN1CCN(Cc2ccc(OCc3ccccc3)c(OC)c2)CC1 | i
CCOC(=O)N1CCN(C(c2cccc(OC)c2)c2sc3nc(C)nn3c2O)CC1 (stereo unspecified) | i
CCOc1ccc(OCC)c(NC(=O)CCCN2C(=O)c3cccnc3C2=O)c1 | i
CC(C)OP(=O)(OC(C)C)C1(O)C(=O)Nc2ccccc21 (stereo unspecified) | 0.4
CCCn1c(SC2C(=O)CC(C)(C)CC2=O)nc2c1c(=O)n(C)c(=O)n2C | 0.7
Cc1c(N/C=C/C(=O)c2ccc(Cl)cc2)c(=O)n(-c2ccccc2)n1C | i
COc1ccc2ccccc2c1C1CC(=O)N2CN(C3CCCCC3)CSC2=C1C#N (stereo unspecified) | 2.5
COc1cc(CC(=O)NCc2cccs2)cc(OC)c1OC | 0.7
Cc1ccc(C(C(=O)NC2CCCC2)N(Cc2ccco2)C(=O)CCC(=O)Nc2ccccn2)cc1 (stereo unspecified) | i
CC(NS(=O)(=O)c1ccccc1)C1COc2ccccc2O1 (stereo unspecified) | i

Screening data (PubChem)
